ClpP mod: qHTS Assay for Activators of ClpP | Potency, µM (top dose mostly 57.5 µM), for the others: at the top dose activity change, negative = active | actives 1.9% (n = 340,000) | AID 651965, 2013 | ATP-dependent Clp protease proteolytic subunit (Bacillus subtilis (strain 168)), P80244 | purified B. subtilis ClpP, FRET peptide cleavage, 20 min; active = well fitted falling curve with a large enough effect; inconclusive = small, poorly fitted or top-dose-only effect; inactive = no such curve, though single readings can be large or run the other way; further: potency means the concentration at half of the fitted maximal effect; the source files actives as falling curves though it sought activators and does not explain the sign; nearly all actives have a fitted effect of over 65% in size; many hits overshoot -100%
Target sequence (P80244 whole entry, looked up): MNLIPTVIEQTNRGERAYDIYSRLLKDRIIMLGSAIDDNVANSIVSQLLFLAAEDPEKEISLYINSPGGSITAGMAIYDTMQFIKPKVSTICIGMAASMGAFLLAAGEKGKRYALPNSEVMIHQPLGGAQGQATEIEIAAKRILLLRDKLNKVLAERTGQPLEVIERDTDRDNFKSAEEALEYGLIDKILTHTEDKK
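Purified B. subtilis ClpP, 10 microg/mL final in Tris/HCl pH8 with KCl, BSA, glycerol and Tween-20, cleaved an Abz/nitrotyrosine-quenched decapeptide. Fluorescence (ex 320, em 430) was read at 0 and 20 min at room temperature. Delta was normalized to 5.8 microM ADEP and DMSO/no-enzyme controls.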
gsp antagonist: antagonizes gsp, the McCune-Albright syndrome mutation. Potency, µM (titrated, usually from 76.9 µM), without a hit: at the highest dose activity change, negative = inhibition, actives largely listed as inhibitors. AID 624288. actives 0.4% (n = 340,000). gsp-mutant cells, cAMP HTRF, 30 min; control for the full effect not named in the record; active = falling curve of any shape with a large fitted effect; inconclusive = falling curve, mostly with a smaller effect; inactive = flat or rising curve; cell line not stated here;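 further: intracellular cAMP measured with PDE inhibitor Ro 20-1724 present during compound exposure; potency means the concentration at half of the fitted maximal effect; on the % scale 0 is the no-effect control and ±100 the full control effect; nearly all actives have a fitted effect of over 65% in size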
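Measurement of cellular cAMP by homogeneous time-resolved fluorescence following a 30 min compound exposure at 37C. The PDE inhibitor […] was present throughout; the assay buffer was DPBS with 0.05% BSA and 0.005% Tween 20.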
gsp ag: activates gsp, the McCune-Albright syndrome mutation; AID 624287; gsp mutant cells, cAMP HTRF, 30 min; control for the full effect not named in the record; Potency, µM (top dose mostly 76.9 µM), for inactives: top-dose activation (cAMP increase), most hits filed as activators; actives 0.13% (n = 340,000); active = well fitted activation curve with a large enough effect; inconclusive = small, poorly fitted or top-dose-only effect, or another doubt; inactive = no such curve, though single readings can be large or run the other way; cell line not stated here;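 further: phosphodiesterase inhibitor Ro 20-1724 added with compounds to block cAMP breakdown; potency means the concentration at half of the fitted maximal effect; nearly all actives have a fitted effect of over 60% in size; about a fifth of the inactives were tested at one dose only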
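Cells stably selected in G418 were plated at 2000/well, grown 16-24 hr, then given compounds in DMSO with the PDE inhibitor […] (300 uM solution added) for 30 min at 37C; cAMP was read by HTRF.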
Sfp PPTase inh: blocks B. subtilis Sfp PPTase activity | AID 1490 | Potency, µM, for inactives: max response, negative = inhibition, usual class: inhibitors | Q9F4F7 | Biochemical Sfp PPTase activity, qHTS | actives 3.5% (n = 310,000); active means well fitted inhibition curve with a large enough effect; inconclusive means small, poorly fitted or top-dose-only effect, or another doubt; inactive means no such curve, though single readings can be large or run the other way;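 further: the enzyme is Sfp with the accession as filed and its product quenches rhodamine fluorescence; potency means the concentration at half of the fitted maximal effect; 0% = enzyme reaction without inhibitor and -100% = no enzyme wells; top concentration of the series not given in the record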
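Reaction rates are the 30-min fluorescence difference (ex 525, em 598 nm) in wells containing 15 nM Sfp, 5 uM rhodamine-CoA and 12.5 uM BHQ-2-YbbR at pH 7.6 with 10 mM MgCl2.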
TRPV1 potentiator: human TRPV1 potentiation. TRPV1-expressing cells, Fluo-8 calcium influx, capsaicin EC20 potentiation; host cell line not named in the record; control for the full effect not named in the record. potentiation, % at 8.33 µM. actives 0.02% (n = 320,000). AID 540277; active means potentiation above 80%; inconclusive means 30% to 80%; inactive means below 30%; further: 0% is about no effect
Target sequence (Q8NER1 whole entry, looked up): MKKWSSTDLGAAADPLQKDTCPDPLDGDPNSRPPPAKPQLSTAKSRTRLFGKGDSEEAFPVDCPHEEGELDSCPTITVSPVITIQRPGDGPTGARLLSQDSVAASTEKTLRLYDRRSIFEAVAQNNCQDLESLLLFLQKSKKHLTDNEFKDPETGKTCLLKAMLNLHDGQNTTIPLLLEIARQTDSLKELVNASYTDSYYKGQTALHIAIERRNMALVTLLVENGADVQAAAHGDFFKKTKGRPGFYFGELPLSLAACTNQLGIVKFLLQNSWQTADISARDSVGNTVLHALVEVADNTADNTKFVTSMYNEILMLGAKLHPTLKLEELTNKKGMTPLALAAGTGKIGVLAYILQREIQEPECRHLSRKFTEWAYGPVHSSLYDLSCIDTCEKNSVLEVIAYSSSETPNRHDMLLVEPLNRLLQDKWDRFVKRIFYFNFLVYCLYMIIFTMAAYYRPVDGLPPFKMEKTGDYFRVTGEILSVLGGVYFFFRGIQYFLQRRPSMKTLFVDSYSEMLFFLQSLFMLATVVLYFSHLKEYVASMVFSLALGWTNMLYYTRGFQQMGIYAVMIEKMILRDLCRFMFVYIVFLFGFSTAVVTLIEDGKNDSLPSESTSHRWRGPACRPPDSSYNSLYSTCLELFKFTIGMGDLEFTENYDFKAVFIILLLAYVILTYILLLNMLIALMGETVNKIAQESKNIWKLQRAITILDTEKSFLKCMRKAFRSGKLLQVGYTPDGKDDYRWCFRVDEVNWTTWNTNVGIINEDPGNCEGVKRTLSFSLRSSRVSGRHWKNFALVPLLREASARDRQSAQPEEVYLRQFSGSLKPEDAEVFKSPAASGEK
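TRPV1-expressing cells were cultured overnight at 35.5C and loaded with Fluo-8 calcium dye for 40 to 90 min at room temperature. After a 10 s baseline, compound was added and calcium influx was read kinetically for 3 min (ex 480/em 520 nm).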
TRPML1 inh: inhibitors of human TRPML1 channel; TRPML1-inducible cells, Ca2+ dye fluorescence, FDSS; hits give low values; inhibition of EC80 agonist-evoked calcium signal; Q9GZU1; actives 0.02% (n = 390,000); activity change, negative = inhibition, % (test concentration not listed); AID 624415; in the data active means activity change below about -50%; inconclusive means about -30% to -50%; inactive means above about -30%;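 further: stimulus is agonist 54-4 at its EC80 concentration; on the % scale 0 is the no-effect control and ±100 the full control effect; compound concentration not given in the record; the text of the record puts the active cut at -80%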
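Tet-induced TRPML1-DL cells loaded with Ca8 no-wash calcium dye were read kinetically on FDSS. Compound addition was followed by EC80 agonist 54-4 (4 uM final); inhibition was read over 110 s.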
Menin-MLL FL inh: displaces fluorescein MLL peptide from human menin; 290,000 tested, under 10 active; FP activity change, % at 61.4 µM; AID 1766; Fluorescence polarization, fluorescein-MLL peptide displacement from menin; inconclusive = falling polarisation curve, or a change in total fluorescence; inactive = total fluorescence flat and polarisation flat or rising; no compound was filed as active; the % refers to the polarisation; negative = inhibition;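 further: % of control where 0% means no effect; inhibitors lower the polarisation; unlabelled MLL peptide was the positive control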
* marks the source's active call; other numbers are inactive results; u = inconclusive; x = not tested or not shown; & = joins results of further samples; [ ] = dose if it differs, or a comment.

SMILES | ClpP mod | gsp antagonist | gsp ag | Sfp PPTase inh | TRPV1 potentiator | TRPML1 inh | Menin-MLL FL inh
O=C1Nc2cc(Cl)c(Cl)cc2N(O)N1c1cccc(Cl)c1 | -1.0% | 4% | 6% | 20% | -10 | 7 | 5.3
CC(=O)c1cccc(NC(=O)COc2ccc(S(=O)(=O)N3CCOCC3)cc2)c1 | 0.3% | -6% | 1% | 14% | -5 | 13 | x
C/C(CC(=O)Nc1ccc(Cl)cc1Cl)=N\NC(=O)c1ccncc1 | 0.3% | 0% | 8% | 2% | -13 | 5 | 2.5
CCOc1ccc(NC(=O)CC(NC(C)=O)c2ccccc2)cc1S(=O)(=O)N1CCCC1 (stereo not given) | -0.1% | -5% | -32%[inhibitor] | x | 7 | -6 | x
CCn1c(SCC#N)nc2ccccc2c1=O | -3.7%&-7.7% | 13% | 3% | 18% | -9 | -12 | -2.7
CCOC(=O)CSc1nc2sc3c(c2c(=O)n1-c1ccc(OCC)cc1)CCN(C)C3 | -22% | -6% | -3% | -21% | 4 | 2 | 11
Cn1cccc1C(=O)OCC(=O)N1CCN(c2ccccc2)CC1 | x | 1% | 16% | x | x | -2 | x
CC1Sc2ccc(S(=O)(=O)CCC(=O)NC3CCCCCC3)cc2NC1=O (stereo not given) | -0.2% | 3% | 38% | 9% | 2 | 29 | -4.5
Cc1ccccc1C(=O)OCC(=O)N(C)c1c(N)n(Cc2ccccc2)c(=O)[nH]c1=O | x | 10% | 12%[15.4 µM] | x | 6 | -3 | x
COc1cccc(N2CCN(C(=O)c3ccccc3SCC(=O)NCc3ccco3)CC2)c1 | -1.2% | -9% | -1% | x | -1 | 6 | x
CC(C)c1cc(C(=O)N(C)C2CCCN(Cc3ccccc3F)C2)n(C)n1 (stereo not given) | -0.7% | x | u | x | x | 65 | x
Cc1cc(C(=O)CSc2nnc(-c3ccccc3)n2-c2ccccc2)c(C)n1-c1ncn[nH]1 | -1.9% | u | 18% | -15% | -1 | 10 | -0.2
O=C(N/N=C/c1ccc(Br)cc1)c1ccccc1-n1cccc1 | -0.8% | 8% | -57%[inhibitor] | 8% | -4 | 7 | -0.4
COc1cccc(-c2ccc(C#N)c(OC(=O)c3c(Cl)cccc3Cl)n2)c1 | 16µM* | 0% | 0% | 7% | 8 | -15 | -0.1
O=C(NCCOc1ccccc1)[C@@H]1CCCN1C(=O)c1cccs1 | x | 7% | 16% | x | x | 1 | x
CSC1=NC2(CC(c3ccccc3)Oc3cc(O)ccc32)CC(C)(C)N1 (stereo not given) | -2.4% | 17% | u | 5% | -6 | -4 | 3.7
CC1(C)CC(=O)C=C(c2ccc(-c3ccccc3)cc2)C1 | -0.9% | 3% | x | x | 2 | 0 | x
CSCCC(NC(=O)CCN1C(=O)c2ccccc2C1=O)C(=O)O (stereo not given) | 0.7% | 12% | -25% | 20% | 9 | 23 | -0.5
CC1(C)CC(=O)C2=C(C1)OC(N)=C(C#N)C21C(=O)N(Cc2ccccc2Cl)c2ccccc21 (stereo not given) | 0.6% | -1% | -14% | 5% | -5 | 3 | -0.6
Nc1nc2c(F)cccc2s1 | -1.1% | -8% | -49%[inhibitor] | 18% | 12 | -28 | 0.5
CCOC(=O)C1=CN(C(C)C)CCC1=O | -3.8% | 8% | x | x | x | 31 | x
COc1cccc(C(=O)NC2(C(F)(F)F)N=C3SCCN3C2=O)c1 (stereo not given) | 1.6% | -11% | -6% | 15% | -8 | 7 | 3.5
Cc1cc(C)nc(-n2nc(C)cc2NC(=O)c2cc3ccccc3oc2=O)n1 | 0.0% | -20% | -6% | x | x | -3 | x
CC1=NN(c2ccc([N+](=O)[O-])cc2)C(=O)/C1=C\N(C)C | 0.8% | 4% | u | 7% | 6 | 6 | 0.0
CCCCn1c(SCC(=O)OCC)nc2c1c(=O)[nH]c(=O)n2C | u | -3% | u | -21% | 5 | -10 | 0.0

More entries follow:
SMILES | ClpP mod | gsp antagonist | gsp ag | Sfp PPTase inh | TRPV1 potentiator | TRPML1 inh | Menin-MLL FL inh
COc1ccc(CN2CCCC(C(=O)N3CCc4ccccc4C3)C2)cc1OC (stereo not given) | -3.8% | 12% | 23% | -21% | 4 | 25 | -0.5
CCOC(=O)c1sc2nc(C)nc(NCc3cccnc3)c2c1C | x | -16% | 4%[15.4 µM] | 11% | -1 | 5 | -1.6
CCCNC(=O)C(Cc1ccccc1)NC(=O)c1ccc(-c2ccccc2)cc1 (stereo not given) | -2.2% | 13% | 15% | x | -10 | -7 | x
COCCCNC(=S)N(CCN(C)C)Cc1cc2cc3c(cc2[nH]c1=O)OCCO3 | -0.7% | 11% | -4%[15.4 µM] | u | 8 | 4 | -1.5
CCC(=O)N/C(=N/c1nc(C)cc(C)n1)Nc1ccc(OC)cc1 | 1.3% | 3% | 10% | 14% | -2 | 3 | -0.9
CCc1nnc(NS(=O)(=O)c2ccc(NC(=S)NC(=O)/C=C/c3ccc(C(C)C)cc3)cc2)s1 | 0.1% | u | -61%[inhibitor] | u | -12 | -4 | 4.3
O=C(CSc1nnc2c(Cl)cc(C(F)(F)F)cn12)Nc1ccc2c(c1)OCO2 | -0.7% | -3% | u | 6% | -8 | -6 | -0.2
CCC(NC(=S)Nc1ccccc1)C(=O)O (stereo not given) | -1.9% | 12% | -44%[inhibitor] | -1% | -2 | -7 | 2.1
Oc1cccc(Nc2ncnc3ccccc23)c1 | 0.9% | 1% | -26% | -2% | 10 | 6 | 1.8
O=C(NCC(=O)N1CCN(S(=O)(=O)/C=C/c2ccccc2)CC1)c1ccc(Cl)cc1 | x | -4% | -13%[15.4 µM] | 15% | 8 | -14 | 1.7
COc1ccccc1-n1c2nc3ccccc3nc2c2c(=O)n(-c3cc(C)cc(C)c3)cnc21 | x | u | -15%[15.4 µM] | -9% | 0 | -19 | 2.5
O=C(Nc1ccccc1C(=O)N1CCCCCC1)c1ccc(Cl)cc1 | x | 6% | -4%[15.4 µM] | 13% | 2 | 16 | -0.8
CC(NS(=O)(=O)c1ccc(Br)cc1F)[C@H](O)c1ccccc1 (stereo not given in full) | 1.5% | x | -67% | x | x | -9 | x
Cc1ccc(S(=O)(=O)CC(CN2CCOCC2)N2CCOCC2)cc1 (stereo not given) | x | 8% | 8%[15.4 µM] | 14% | 4 | -5 | -1.0
O=C(COC(=O)C1CCN(S(=O)(=O)c2c(Cl)cccc2Cl)CC1)NCc1ccco1 | 1.5% | -20% | -12% | x | -12 | -1 | x
COc1ccc(NC(=O)N(C)[C@H]2C[C@H]3c4[nH]c5ccc(-c6ccc7c(c6)OCO7)cc5c4CCN3C[C@H]2[C@H](C)O)cc1 | u | x | 24% | x | x | -12 | x
CCc1ccc(OCC(O)CN2CCN(c3ccc(OC)cc3)CC2)cc1 (stereo not given) | -0.2% | -1% | 8% | -16% | -12 | 10 | -26
Cc1cc(=O)oc(C)c1C(=O)NCCc1ccc(F)cc1 | -0.9% | 16% | 3% | 11% | 0 | 10 | 1.1
Cc1ccc2nc3c(cc(C(=O)NC4CCCCC4)c(=N)n3C3CCCCC3)c(=O)n2c1 | x | -16% | -3% | 18% | 0 | 23 | 3.0
Cc1ccc([N+](=O)[O-])cc1NC(=O)Nc1ccc(S(N)(=O)=O)cc1 | -1.9% | 6% | 11% | 3% | 2 | -8 | -1.3
CCCCC(=O)OCc1c(-c2ccccc2)ncc2ccccc12 | -2.5% | -3% | x | x | -10 | 6 | x
Cn1nnnc1Sc1ncnc2scc(-c3ccccc3)c12 | -0.4%&-7.3% | 11% | -8%[15.4 µM] | 7% | -3 | 19 | 0.6
O=S(=O)(Cc1ccc(Cl)cc1)N1CCN(Cc2ccc3c(c2)OCO3)CC1 | x | -3% | 21%[15.4 µM] | 29% | 8 | 18 | 0.9
COc1ccc(C(=O)c2ccc(OC)c(OC)c2OC)cc1 | 1.5% | 34% | 15%[15.4 µM] | x | x | -3 | x
C#CCOCCOCCOCCNc1nc(N2CCN(C(=O)[C@H]([C@@H](C)CC)n3cc(CCCN=C(N)N)nn3)CC2)nc(N2CCN(C(=O)[C@H]([C@@H](C)CC)n3cc(CCCN=C(N)N)nn3)CC2)n1 | x | x | x | -8% | 15 | x | 0.7
C[C@@H]1CN([C@@H](C)CO)C(=O)c2cc(NC(=O)Nc3ccc4c(c3)OCO4)ccc2O[C@H]1CN(C)S(=O)(=O)c1cn(C)cn1 | 1.7% | 8% | x | x | x | -6 | x

Full records as entered above. Order of values: ClpP mod, gsp antagonist, gsp ag, Sfp PPTase inh, TRPV1 potentiator, TRPML1 inh, Menin-MLL FL inh
CC(NS(=O)(=O)c1ccc(Br)cc1F)[C@H](O)c1ccccc1 (stereo not given in full) in the list: 1.5%, x, -67%, x, x, -9, x
C[C@@H]1CN([C@@H](C)CO)C(=O)c2cc(NC(=O)Nc3ccc4c(c3)OCO4)ccc2O[C@H]1CN(C)S(=O)(=O)c1cn(C)cn1 in the list: 1.7%, 8%, x, x, x, -6, x
O=C(NCC(=O)N1CCN(S(=O)(=O)/C=C/c2ccccc2)CC1)c1ccc(Cl)cc1 in the list: x, -4%, -13%[15.4 µM], 15%, 8, -14, 1.7

Ordered by molecular weight (descending): 3 of the compounds above.
SMILES | ClpP mod | gsp antagonist | gsp ag | Sfp PPTase inh | TRPV1 potentiator | TRPML1 inh | Menin-MLL FL inh
COc1ccc(NC(=O)N(C)[C@H]2C[C@H]3c4[nH]c5ccc(-c6ccc7c(c6)OCO7)cc5c4CCN3C[C@H]2[C@H](C)O)cc1 | u | x | 24% | x | x | -12 | x
CCCNC(=O)C(Cc1ccccc1)NC(=O)c1ccc(-c2ccccc2)cc1 (stereo not given) | -2.2% | 13% | 15% | x | -10 | -7 | x
Cn1nnnc1Sc1ncnc2scc(-c3ccccc3)c12 | -0.4%&-7.3% | 11% | -8%[15.4 µM] | 7% | -3 | 19 | 0.6

Screening data from PubChem BioAssay.
